Sa RN4220 lethal = S. aureus RN4220 growth inhibition; OD600, 16 h; inhibition, % (test concentration not listed); 330,000 tested, 0.33% active; AID 1259311;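 active = z-score of -3 or lower and OD600 up to 0.18 on both plates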;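 note: plate controls were untreated cells for no effect and reference antibiotic for full effect; stock transfer was 100 nL into about 80 µL; one replicate is shown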
Sa ugtP lethal = kills S. aureus RN4220 lacking UgtP; S. aureus RN4220 ugtP deletion, OD600 growth, 16 h; some inactives read as strong as hits; AID 1259309; 330,000 tested, 0.54% active; growth inhibition, % (concentration not given with the values);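 active = z-score under -3 and OD600 up to 0.15 on both plates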;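 note: plate controls were untreated wells for no effect and antibiotic for full effect; wells of about 80 µL received 100 nL stock; the first replicate is given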
Autofluor counter = counter-screen for toxin protease inhibitors: compound fluorescence | compound autofluorescence counterscreen, microsphere flow cytometry; hits give high values | fluorescence intensity (concentration not given with the values) | 360,000 tested, 3.1% active;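 active = at least 3 SD above the mean of all compounds, about 16000 in these data; inconclusive = too few beads counted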;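 note: 100 nL of 1 mM stock went into each well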
BJeLR lethal = kills HRASV12-expressing BJeLR cells | 300,000 tested, 0.17% active | inhibition, % (no concentration beside the values) | BJeLR (HRASV12) viability, CellTiter-Glo ATP luminescence, 48 h; reference of the scale not given here;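 active = replicate mean above 50%; inconclusive = above 50% but judged a plate artefact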;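 note: 50 nL library stock added to about 25 µL; numbers are from one replicate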
PrP 5UTR inh = suppresses PrP 5' UTR mRNA reporter expression; cell-based PrP 5' UTR mRNA reporter, plate reader; inhibition, % (no concentration beside the values); 340,000 tested, 0.35% active; AID 488862;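 active = every replicate at 50% or more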;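 note: 0 = median of the neutral control wells; tested in H4 reporter cells; numbers are from one replicate; inactives centre near -14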
Mtb hypoxia rep = Mtb hypoxia fluorescent reporter inhibition; M. tuberculosis hypoxia-regulated fluorescent reporter, fluorescence; fluorescence inhibition, % (test concentration not listed); 300,000 tested, 0.1% active; AID 1159583;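 active = 35 to 45% if threefold the growth effect, above 45% if 1.5-fold the growth effect; inactive = the rest, general growth blockers included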;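 note: wells of about 50 µL received 100 nL stock; 0% = vehicle wells and 100% = reference inhibitor wells; whole bacteria with a GFP reporter of the hypoxia response; strong numbers were not always called active; many hits fall short of the cut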
Mtb hypoxia rep growth = also measured in Mtb hypoxia rep; calls as there; growth inhibition, %; measured here: M. tuberculosis growth (absorbance);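 0% = vehicle and 100% = reference antibiotic; read after six days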
* hit, by the source's call; ? = inconclusive; / = not tested or not shown.

SMILES | Sa RN4220 lethal | Sa ugtP lethal | Autofluor counter | BJeLR lethal | PrP 5UTR inh | Mtb hypoxia rep | Mtb hypoxia rep growth
OCCNc1nc(Nc2ccccc2Oc2ccccc2)nc(N2CCCC2)n1 | 8.6 | 5 | 3985 | -3 | -3 | 6 | 2
COc1ccc(/C=N/NC(=O)c2ccc(-c3ccccc3)cc2)cc1O | / | / | 2602 | -5 | -13 | / | /
COc1ccc(S(=O)(=O)Nc2ccc3oc4ncccc4c(=O)c3c2)cc1OC | 3.2 | 0 | 4692 | 1 | -21 | -2 | 0
COc1ccc(OC2C(=O)N(Cc3ccc4c(c3)OCO4)C2c2cccs2)cc1 (configuration not stated) | -1.0 | 28 | 10905 | -2 | -29 | 18 | 2
O=S(=O)(c1ccccc1Br)N1CCC(O)(c2cccnc2)CC1 | 3.1 | 4 | 3672 | 3 | -23 | -4 | -1
O=S(=O)(Nc1cccc(-c2cn3c(n2)SCC3)c1)c1cccs1 | 1.7 | -20 | 2355 | 0 | 3 | -3 | -1
CCn1c(SCC(=O)NNC(=S)Nc2ccccc2)nnc1-c1ccc(Cl)cc1 | 1.5 | 11 | 2408 | -8 | 0 | 13 | 12
CCOC(=O)N1CCN(C(=O)c2ccc3oc(CCCc4ccccc4)nc3c2)CC1 | 5.1 | 5 | 5327 | 8 | -101 | 14 | 13
CC(C)c1ccc(S(=O)(=O)N2CCC(C(=O)N3CCN(c4cccc(Cl)c4)CC3)CC2)cc1 | -4.7 | -13 | 4241 | / | -18 | 2 | 12
CCOc1ccccc1N(C)C(=O)c1sc2ncn(CC(=O)N3CCCCC3C)c(=O)c2c1C (configuration not stated) | 5.1 | 9 | 6241 | 1 | -36 | -3 | 5
Cc1noc(C)c1CSc1nc2ccccc2c(=O)n1-c1ccc(F)cc1F | -7.7 | 30 | 4376 | 25 | -13 | / | /
COc1cc(C=NOCC(=O)NC23CC4CC(CC(C4)C2)C3)ccc1OCc1ccccc1 | -8.9 | 6 | / | / | / | 19 | 10
CCOc1ccc(OCC)c2sc(C)nc12 | -1.0 | -6 | 3987 | -4 | -3 | 6 | 7
CC(C(=O)NCC1(c2ccccc2)CCOCC1)N1CCOCC1 (configuration not stated) | 3.0 | 10 | 4182 | 3 | -16 | 1 | 10
CCc1onc(C)c1C(=O)Nc1cc(C)ccc1OC | 7.8 | 4 | 3133 | -1 | 2 | / | /
CCN(CC)C1CC(=O)N(c2ccc(Br)cc2)C1=O (configuration not stated) | 1.4 | 11 | 3191 | 10 | -17 | -3 | 3
CC(C)(C)c1ccc(C(=O)NC(=S)Nc2nc3c(s2)CCCC3)cc1 | -10 | -3 | 1984 | 3 | 25 | 10 | 14
CCOC(=O)N1CCC(N2Cc3cccc(C(=O)N4CCN(c5cccc(Cl)c5)CC4)c3C2=O)CC1 | 2.9 | 3 | 2575 | 1 | 3 | 4 | -3
Cc1cc(NC(=O)CSc2nnc(C3CC3)n2N)c([N+](=O)[O-])cc1C | 1.0 | 9 | 4214 | 2 | -8 | 10 | 1
COc1cc(C(=O)Nc2ccc(S(=O)(=O)Nc3nccc(C)n3)cc2)c([N+](=O)[O-])cc1OC | -1.1 | 6 | 5115 | -6 | 10 | 18 | 13
CC(=O)Nc1ccc(S(=O)(=O)N2CCC(C(=O)NCCc3c[nH]c4ccccc34)CC2)cc1 | 1.1 | 1 | 4200 | -2 | -20 | 3 | 4
NC(=NOC(=O)Cc1cccs1)c1cccc([N+](=O)[O-])c1 | 7.4 | -1 | / | / | / | 7 | -1
CC(C)(C)Nc1ncnc2sc(-c3ccccc3)cc12 | 1.6 | -19 | 3176 | -2 | -8 | -11 | -5
Cc1cc(C(=O)NCc2ccc(C(=O)O)o2)c(C)o1 | 3.1 | 11 | 9769 | 14 | -1 | 5 | 5
O=C(Cn1cnc2c(oc3ccccc32)c1=O)c1ccccc1 | 4.2 | 4 | 8713 | -1 | -66 | 16 | 10
COc1ccc(-c2cc(C(F)(F)F)nc(SCCC(=O)N3CCN(C)CC3)n2)cc1 | 1.0 | -3 | 4419 | / | -10 | 11 | 3
CCOC(=O)C1=C(N)n2c(sc(=Cc3cccnc3)c2=O)=C(C#N)C1c1cccnc1 (configuration not stated) | 5.6 | 4 | / | / | / | 5 | 5
CCOC(=O)C1=CN(Cc2cccc(F)c2)S(=O)(=O)N(CC)C1CCc1ccccc1 (configuration not stated) | -4.7 | 8 | 3802 | / | -18 | -2 | 3
CCOC(=O)c1cc2sccc2n1CC(=O)O | 0.7 | 10 | 6859 | -6 | -45 | 1 | 2
COc1ccc(C23CC4CC(CC(C4)C2)C3)cc1C(=O)NCCN(C)C | -4.8 | -10 | 3450 | 8 | -15 | 10 | 3
CC1(C)CC(NC(=O)c2cccc([N+](=O)[O-])c2)CC(C)(C)N1 | -1.7 | 5 | 3713 | -10 | -2 | -4 | -1
COc1cc(C=O)ccc1OCc1cccc(Br)c1 | 2.2 | 5 | 2145 | 0 | -57 | 3 | 2
CCCn1c2ccccc2c2cnn(CC(=O)NC(C)CC)c(=O)c21 (configuration not stated) | -3.0 | -4 | 3454 | 3 | -16 | -7 | 5
CCOC(=O)CN(C(=O)COc1nc(C)cc(C)c1C#N)c1ccc(Cl)cc1 | 5.3 | 5 | 6296 | 5 | -1 | 9 | 5
O=C1OCc2cc(NS(=O)(=O)c3cccs3)ccc21 | 5.7 | 4 | 8523 | -9 | -3 | -6 | -10
CC(=O)NCC(=O)OC(C)C(=O)Nc1ccc(C(C)=O)cc1 (configuration not stated) | 4.9 | 9 | 3354 | -6 | 13 | 1 | -1
COc1cc(CNCCc2ccccc2F)ccc1OCc1ccc(Cl)nc1 | -7.0 | -7 | 3911 | -4 | -18 | 7 | 13
CCN1C(=O)CSc2ccc(C(=O)NCc3ccc(OC)cc3)cc21 | 0.9 | 11 | 11413 | -13 | -13 | 6 | 10
COc1cccc(C(=O)NCC(=O)OCC(=O)NC2CCCCC2)c1 | -4.7 | -7 | 2876 | / | 3 | 2 | 1
Cn1c(=O)cc(SCC(=O)NCC2COc3ccccc3O2)c2ccccc21 (configuration not stated) | 0.5 | -4 | 8336 | 0 | -14 | -6 | 5
CCN1CCCC1CNC(=O)Cn1cnc2sc(C)c(S(=O)(=O)N3CCC(C)CC3)c2c1=O (configuration not stated) | -0.4 | -1 | / | -2 | / | 9 | 4
O=C(c1ccc(F)cc1)N1CCCC(C(=O)N2CCCCC2)C1 (configuration not stated) | 0.5 | 2 | 5975 | -6 | -14 | 19 | -2
CCCCn1c(N)c(N(CC(C)C)C(=O)c2ccc(N3C(=O)c4ccccc4C3=O)cc2)c(=O)[nH]c1=O | / | / | ? | -2 | -13 | / | /
c1ccc(CCN(Cc2ccccc2)C2CCN(C3CCCC3)CC2)cc1 | 4.1 | 3 | 4231 | 5 | -15 | -9 | 1
O=C(NC1CCCC1)C(c1ccc(F)cc1)N(Cc1ccccc1)C(=O)c1csnn1 (configuration not stated) | 7.8 | 3 | 3628 | -1 | -19 | -1 | 8
CC(O)c1cccc(NC(=O)CCC(=O)O)c1 (configuration not stated) | 1.3 | 1 | 10334 | 3 | -5 | 5 | 1
COc1cc(/C=C2\SC(=O)N(CC(=O)Nc3cccc(C)c3)C2=O)ccc1OC(C)C(=O)O (configuration not stated) | 2.8 | -2 | 3737 | -5 | -17 | 10 | 4
Cc1c(O)ccc2c(CN3CCN(Cc4ccccc4)CC3)cc(=O)oc12 | -1.4 | -3 | 3544 | -4 | -13 | -5 | 12

A second format for some results above.
| mol | Sa RN4220 lethal | Sa ugtP lethal | Autofluor counter | BJeLR lethal | PrP 5UTR inh | Mtb hypoxia rep | Mtb hypoxia rep growth |
| --- | --- | --- | --- | --- | --- | --- | --- |
| COc1cc(C(=O)Nc2ccc(S(=O)(=O)Nc3nccc(C)n3)cc2)c([N+](=O)[O-])cc1OC | -1.1 | 6 | 5115 | -6 | 10 | 18 | 13 |
| CC(=O)Nc1ccc(S(=O)(=O)N2CCC(C(=O)NCCc3c[nH]c4ccccc34)CC2)cc1 | 1.1 | 1 | 4200 | -2 | -20 | 3 | 4 |
| NC(=NOC(=O)Cc1cccs1)c1cccc([N+](=O)[O-])c1 | 7.4 | -1 | / | / | / | 7 | -1 |
| CC(C)(C)Nc1ncnc2sc(-c3ccccc3)cc12 | 1.6 | -19 | 3176 | -2 | -8 | -11 | -5 |
| Cc1cc(C(=O)NCc2ccc(C(=O)O)o2)c(C)o1 | 3.1 | 11 | 9769 | 14 | -1 | 5 | 5 |

Further results:
SMILES | Sa RN4220 lethal | Sa ugtP lethal | Autofluor counter | BJeLR lethal | PrP 5UTR inh | Mtb hypoxia rep | Mtb hypoxia rep growth
Cc1nn(C)cc1C=NNC(=O)Cn1nccc1C | -2.3 | 5 | / | / | / | 3 | 1
O=C(C1CC(=O)N(c2ccc3c(c2)OCCO3)C1)N1CCN(S(=O)(=O)c2ccccc2F)CC1 (configuration not stated) | 6.2 | 7 | 3677 | / | -10 | 4 | 1
O=c1[nH]c(=S)n(Cc2ccc(F)cc2)c(O)c1C=NCc1ccc2c(c1)OCO2 | 4.4 | -6 | 5395 | -5 | -28 | 10 | 2
CCc1cccc(CC)c1NC(=O)CSc1nc2ccc(N3C(=O)C4C(C3=O)[C@H]3C=C[C@@H]4C3)cc2s1 (some centres not stated) | 7.3 | -2 | 10296 | -10 | -1 | -2 | 0
CCCn1c(N)c(N2CCCCC2)c(=O)n(CC(=O)Nc2ccccc2)c1=O | 1.6 | 2 | 2509 | -7 | -17 | -4 | 4
O=C(Nc1ccc(Br)cc1)c1ccc(F)c(S(=O)(=O)N2CCN(c3ccccn3)CC2)c1 | -1.8 | -14 | 4020 | 25 | -16 | -7 | 0
COC(=O)C(=NNc1ccccc1OC)N1CCCc2ccccc21 | -1.1 | 9 | / | / | / | -3 | 3
Cn1c(SCC(=O)Nc2nc3ccccc3s2)nnc1-c1ccccc1 | 0.0 | 9 | 3574 | / | -33 | -1 | -3
CCCCCNC(=O)Cn1c(=O)c2c(ncn2CC(C)C)n(Cc2ccccc2)c1=O | 3.0 | 12 | 4107 | -14 | -27 | 2 | 4
COc1cccc(CNC(=O)c2cc3c(C)nc4ccccc4c3o2)c1 | -6.1 | -6 | 6827 | 18 | -17 | 6 | 9
C=CCn1cnc2c(nnn2-c2cc(C)cc(C)c2)c1=O | 3.5 | 3 | 4119 | -14 | -12 | 11 | 2
COC(=O)CC=CC(C)C(C=NOCC1OC(c2ccccc2)C=CC1Oc1ccc(OC)cc1)OC (configuration not stated) | 1.5 | 2 | / | / | / | 11 | 1
CC(=O)Nc1ccc(S(=O)(=O)NNC2=NS(=O)(=O)c3ccccc32)cc1 | 0.1 | 4 | 2058 | -11 | -2 | -4 | 5
Cc1c(C(=O)C(=O)N2c3ccccc3CC2C)c2ccccc2n1C (configuration not stated) | 3.5 | 18 | 3180 | -5 | -14 | 7 | 7
Cc1cccc(NC(=O)c2ccc3c(c2)OCCO3)c1C | 8.8 | -2 | 4218 | 9 | -26 | 3 | -1
Cc1ccc(OCC(=O)N2CCN(C3CCC(c4ccccc4)CC3)CC2)cc1 (configuration not stated) | -5.9 | 7 | 3578 | 1 | -1 | 3 | 12
CCOC(=O)NN=Cc1cccc(OC)c1 | 0.1 | -1 | / | / | / | -7 | 3
CC(=O)c1c(C)n(CCCOC(C)C)c2ccc(O)cc12 | 1.4 | 1 | 12882 | -6 | -14 | 7 | 10
CCOC(=O)c1c(C)[nH]c(C)c1S(=O)(=O)Nc1ccc(CN2CCCCC2)cc1 | 0.9 | 7 | 5198 | 1 | -8 | 5 | 6
c1ccc(Nc2nc(N3CCOCC3)nc(N3CCOCC3)n2)cc1 | 2.7 | -1 | 2082 | -2 | 8 | / | /

Rewritten with each value named: part of the list above
Cc1c(C(=O)C(=O)N2c3ccccc3CC2C)c2ccccc2n1C (configuration not stated)
  Sa RN4220 lethal: 3.5 | Sa ugtP lethal: 18 | Autofluor counter: 3180 | BJeLR lethal: -5 | PrP 5UTR inh: -14 | Mtb hypoxia rep: 7 | Mtb hypoxia rep growth: 7

c1ccc(Nc2nc(N3CCOCC3)nc(N3CCOCC3)n2)cc1
  Sa RN4220 lethal: 2.7 | Sa ugtP lethal: -1 | Autofluor counter: 2082 | BJeLR lethal: -2 | PrP 5UTR inh: 8 | Mtb hypoxia rep: / | Mtb hypoxia rep growth: /

CC(=O)c1c(C)n(CCCOC(C)C)c2ccc(O)cc12
  Sa RN4220 lethal: 1.4 | Sa ugtP lethal: 1 | Autofluor counter: 12882 | BJeLR lethal: -6 | PrP 5UTR inh: -14 | Mtb hypoxia rep: 7 | Mtb hypoxia rep growth: 10

Screening data (PubChem BioAssay)
